# Screening results deposited in PubChem by National Center for Advancing Translational Sciences (NCATS).
# D2 potentiator: Beta-Arrestin HTS for Positive Allosteric Modulators of the Human D2 Dopamine Receptor: Potentiators. D(2) dopamine receptor (Homo sapiens), P14416. DiscoveRx D2 beta-arrestin cells, luminescence, 90 min; 100% = 57 uM dopamine signal. potentiation, % (concentration not given with the values). actives 0.23% (n = 360,000). AID 624464, 2012; active = potentiation of 50% or more; inconclusive = 30% to 50%; inactive = 30% or less;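 also: compound concentration not given in the record; tested on top of an EC20 dose of dopamine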
#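 PathHunter beta-arrestin assay in DiscoveRx D2 cells. Compounds were added with an EC20 of dopamine (50 nM final) for 90 min at 37 deg C. Luminescence was read 1 h after detection reagent, with 57 uM dopamine as the EC100 control.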
# D2 agonist: Beta-Arrestin HTS for Positive Allosteric Modulators of the Human D2 Dopamine Receptor: Agonists; D(2) dopamine receptor (Homo sapiens), P14416; actives 0.084% (n = 360,000); DiscoveRx PathHunter D2 beta-arrestin, luminescence, 90 min; 100% = 57 uM dopamine signal; activation, % (concentration not given with the values); in the data active = activation above about 40%; inconclusive = about 15% to 40%; inactive = below about 15%; also: compound concentration not given in the record; the text of the record calls up to 30% inactive
#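 Agonist mode: compounds alone added to overnight-plated D2 PathHunter cells for 90 min at 37 C, with 57 uM final dopamine (EC100) defining full response. Beta-arrestin recruitment detected by chemiluminescent reagent, read after 1 h at ambient temperature.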
# PINK1 modulator: A Quantitative High throughput Screen to Identify Chemical Modulators of PINK1 Expression | actives 0.2% (n = 410,000) | PINK1 immunofluorescence, high-content cytometry, 24 h | Potency, µM (top dose mostly 76.6 µM), without a hit: at the top dose activation (PINK1 increase), usual class: activators; active = well fitted activation curve with a large enough effect; inconclusive = small, poorly fitted or top-dose-only effect; inactive = flat fitted curve, though single readings scatter; cell line not stated here;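 also: potency is read from the fitted curve at half-maximal effect; % of control where 0% means no effect; nearly all actives have a fitted effect of over 65% in size; a mitochondrial uncoupler was the plate control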
#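 Stable cell line, 250 cells/well, 12 h attachment; compounds pinned at 5 concentrations, 24 h; CCCP control. Fixed with nuclear dye, primary antibodies 12 h at 10 degrees C, secondary plus cell stain; laser-scanning cytometer read.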
# TRPV1 PAM: HTS Assay for Compounds that Act as Potentiators of the Vanilloid Receptor 1. TRPV1-expressing cells, Fluo-8 calcium influx, capsaicin EC20 potentiation; host cell line not named in the record; control for the full effect not named in the record. potentiation, % at 8.33 µM. actives 0.02% (n = 320,000). AID 540277, 2011; active means potentiation above 80%; inconclusive means 30% to 80%; inactive means below 30%; also: 0% is about no effect
#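 Cells expressing TRPV1 were dye-loaded with Fluo-8 and read kinetically: 10 s baseline, 3 min after compound (agonist portion), then 2 min after EC20 capsaicin (allosteric enhancer portion). Calcium-bound dye fluorescence at 480/520 nm.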
# Six1-Eya2 blk: qHTS Assay for Inhibitors of the Six1/Eya2 Interaction; Homeobox protein SIX1 (Homo sapiens) + Protein phosphatase EYA2 (Homo sapiens), …; activity change, % (no concentration beside the values); actives 0.56% (n = 360,000); AID 651725, 2012; AlphaScreen GST-Six1/His-Eya2 binding, biochemical; active compounds read low; control for the full effect not named in the record; in the data active = activity change below about -65%; inconclusive = about -30% to -65%; inactive = above about -30%; also: % is scaled to controls: 0 for no effect and ±100 for the full control effect
# Target sequence (O00167 whole entry, looked up): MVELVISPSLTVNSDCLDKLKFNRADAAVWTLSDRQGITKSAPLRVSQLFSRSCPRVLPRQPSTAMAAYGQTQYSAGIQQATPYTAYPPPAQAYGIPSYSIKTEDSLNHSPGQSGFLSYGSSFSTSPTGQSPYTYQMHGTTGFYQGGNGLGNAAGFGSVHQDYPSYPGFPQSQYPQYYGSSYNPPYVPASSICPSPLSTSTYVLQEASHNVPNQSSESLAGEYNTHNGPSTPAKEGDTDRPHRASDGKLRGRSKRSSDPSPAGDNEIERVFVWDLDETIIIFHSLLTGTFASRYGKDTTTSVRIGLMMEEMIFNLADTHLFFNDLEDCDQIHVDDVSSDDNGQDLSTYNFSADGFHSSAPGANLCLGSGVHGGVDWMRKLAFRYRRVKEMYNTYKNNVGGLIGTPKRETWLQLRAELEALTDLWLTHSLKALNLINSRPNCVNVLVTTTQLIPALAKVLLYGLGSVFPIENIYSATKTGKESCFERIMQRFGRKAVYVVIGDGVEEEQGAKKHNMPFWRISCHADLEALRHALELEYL
# Target sequence (Q15475 whole entry, looked up): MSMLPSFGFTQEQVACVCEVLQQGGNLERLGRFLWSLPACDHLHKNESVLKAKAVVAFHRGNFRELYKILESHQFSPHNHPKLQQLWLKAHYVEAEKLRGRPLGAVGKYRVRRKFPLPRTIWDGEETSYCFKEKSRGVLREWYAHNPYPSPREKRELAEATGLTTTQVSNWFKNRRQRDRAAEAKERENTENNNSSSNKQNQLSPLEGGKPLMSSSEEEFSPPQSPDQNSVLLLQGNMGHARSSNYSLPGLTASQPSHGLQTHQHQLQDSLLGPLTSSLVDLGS
#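 GST-Six1 + His-Eya2 (5X stock: 250/500 nM); Tris pH 8.0, 300 mM NaCl, 0.05% BSA, 0.02% Tween 20; GSH donor/Ni acceptor beads; 1 h 37 °C dark; AlphaScreen readout.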
# Sfp PPTase inh: qHTS Assay for Inhibitors of Bacillus subtilis Sfp phosphopantetheinyl transferase (PPTase); 4'-phosphopantetheinyl transferase ffp (Bacillus subtilis), Q9F4F7; Biochemical Sfp PPTase activity, qHTS; Potency, µM, without a hit: max response, negative = inhibition, most hits filed as inhibitors; actives 3.5% (n = 310,000); AID 1490, 2009; active = well fitted inhibition curve with a large enough effect; inconclusive = small, poorly fitted or top-dose-only effect, or another doubt; inactive = no such curve, though single readings can be large or run the other way;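 also: the enzyme is Sfp with the accession as filed and its product quenches rhodamine fluorescence; potency is read from the fitted curve at half-maximal effect; 0% = enzyme reaction without inhibitor and -100% = no enzyme wells; top concentration of the series not given in the record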
#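 Step 1, compound plus 15 nM Sfp-PPTase, 15 min, room temperature. Step 2, add rhodamine-CoA (5 uM) and BHQ-2-YbbR (12.5 uM). Step 3, read 525/598 nm fluorescence at 0 and 30 min.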
# CtBP-E1A blk: qHTS Assay for Inhibitors of the CtBP/E1A Interaction; CtBP / adenovirus E1A interaction (AlphaScreen); AlphaScreen GST-E1A/His-CtBP binding, 1536-well; active compounds read low; control for the full effect not named in the record; activity change, % (concentration not given with the values); actives 0.49% (n = 340,000); AID 651724, 2012; in the data active means activity change below about -65%; inconclusive means about -30% to -65%; inactive means above about -30%; also: % is scaled to controls: 0 for no effect and ±100 for the full control effect
#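 In 5 uL wells, 23 nL compound meets equimolar GST-E1A and His-CtBP (5X stock 125 nM each) for 2 h, 37 °C. Beads (5X, 50 ug/mL) then 1 h, 37 °C, dark.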
# * = called active by the depositor; ? = inconclusive; . = not tested or not shown; & = joins results of further samples; [ ] = dose if it differs, or a comment.
mol	D2 potentiator	D2 agonist	PINK1 modulator	TRPV1 PAM	Six1-Eya2 blk	Sfp PPTase inh	CtBP-E1A blk
COc1ccccc1N(C)S(=O)(=O)c1ccc(C(=O)N2CCCc3ccccc32)cc1	-5	2.8	-0.3%	-2	-11	-5%	-1
O=C(c1ccccn1)N(Cc1ccco1)C1(C(=O)Nc2ccc(Br)cc2)CCCCC1	-5	-4.9	5.4%	.	-2	.	1
Cc1ccc(C2=NN(C(=O)CCl)C(c3cccs3)C2)o1 (stereo not drawn)	-4	-2.2	1.0%	-17	3	50µM*	13
CCCC(=O)n1nc(-c2ccccc2)nc1SC	10	-4.0	2.4%	4	-7	8%	.
Cc1cccc(C(=O)Oc2ccccc2C2C[C@]3(C)CC(=O)NC3N2C(=O)c2cccc(C)c2)c1 (stereo partly drawn)	10	-1.8	-1.1%	0	3	3%	0
CCN(CC)c1cc(C)c2cc(NC(=O)c3ccccc3F)ccc2n1	-2	5.3	0.2%	12	2	11%	-5
COc1cccc(CC(NC(C)=O)C(=O)NC2CCN(S(=O)(=O)c3ccc4ccccc4c3)CC2)c1 (stereo not drawn)	0	0.8	-7.7%[38.3 µM]	2	-8	11%	-19
O=C1c2ccccc2NC(c2cccs2)N1NS(=O)(=O)c1ccccc1 (stereo not drawn)	-1	-1.6	0.9%	7	5	19%	3
CCn1c(SCC(=O)Nc2cc(C)on2)nnc1-c1ccccc1	-5	-1.5	-1.3%	0	7	7%	-6
Cc1ccc(S(=O)(=O)NCCC(=O)OCC(=O)Nc2ccccc2Cl)cc1	0	1.0	-0.6%	-2	4	9%	5

# (next part)
mol	D2 potentiator	D2 agonist	PINK1 modulator	TRPV1 PAM	Six1-Eya2 blk	Sfp PPTase inh	CtBP-E1A blk
Cc1cccc2c(C(=O)O)c3cccc(C)c3nc12	-8	-8.3	0.7%	.	8	.	2
COCC(=O)N1CCCC(C(=O)c2ccc(Oc3ccccc3)cc2)C1 (stereo not drawn)	2	-1.8	0.2%	-27	-3	14%	-16
CSCCC(C)N1CCC(Oc2ccc(C(=O)NCc3ccccn3)cc2)CC1 (stereo not drawn)	-14	-1.8	1.2%	.	-6	.	3
Cc1cccc(NC(=O)CCn2cnnn2)c1	-1	-3.3	-0.8%&0.2%	6	3	11%	10
Cn1c(C(O)c2ccc(Br)cc2)nc(Cl)c1Cl (stereo not drawn)	0	5.1	4.6%	7	-1	11%	1
O=C(CSc1nnc(NC(=O)c2ccccc2F)s1)NC1CC1	0	-3.4	-1.2%	-3	9	14%	3
COc1ccc(CCNC(=O)c2cc(-c3ccccn3)nc3ccccc23)cc1	3	1.0	-1.8%	11	-2	.	-5
Cc1nnc(SCc2nnc(-c3cccs3)o2)n1C	-17	2.7	0.0%	2	2	4%	8
Cc1ccc2[nH]c(-c3ccccc3)c(CN(C)C)c(=O)c2c1	-4	-2.1	3.5%[38.3 µM]	5	2	29%	4
CC(C)c1cc(C(=O)OCC(=O)NC2CC2)c(O)c(C(C)C)c1	-20	-1.7	3.4%	.	8	.	-3

# Carrying on:
mol	D2 potentiator	D2 agonist	PINK1 modulator	TRPV1 PAM	Six1-Eya2 blk	Sfp PPTase inh	CtBP-E1A blk
CN(C)CCNc1oc(COc2ccc(Cl)cc2)nc1C#N	-20	0.4	-2.3%	0	-1	9%	-4
CCOc1ccc(CN2CCN(CCCn3cccn3)CC2CCO)cc1 (stereo not drawn)	-14	-3.3	2.5%	23	-4	-10%	-9
COc1ccc(CNC(=O)C2CCN(S(=O)(=O)c3cccc4nonc34)CC2)cc1	-6	7.0	8.4%	-12	2	6%	7
Cc1cccc(C(=O)NNC(=O)c2ccc3ccccc3c2)c1	-5	-2.9	1.0%	.	4	.	2
O=C1CC(c2cccc(Br)c2)C2=C(CCCC2=O)N1 (stereo not drawn)	4	-3.9	0.8%	-16	4	14%	14
Cc1ccccc1C(=O)NCC(=O)NNC(=S)NC(=O)c1ccccc1	-1	2.3	1.2%	21	4	-3%	1
CCOC(=O)N1CCN(CC(=O)n2c(C)c(C)c3ccccc32)CC1	-9	-3.8	-2.4%	-4	-8	?	-2
Cc1[nH]nc2c1C(c1cn[nH]c1-c1ccc(F)cc1)C(C#N)=C(N)O2 (stereo not drawn)	7	-0.1	19%	6	9	5%	-9
O=C(Nc1cccc(Cl)c1N1CCOCC1)c1cccnc1Cl	-6	0.3	-0.8%	-12	2	20%	3
COc1ccc(OC)c(-c2cc(C(=O)N3CCc4ccccc4C3)no2)c1	-11	-0.3	0.9%[38.3 µM]	-7	-2	-4%	-7

# Copied from the list:
# Sfp PPTase inh with `O=C(Nc1cccc(Cl)c1N1CCOCC1)c1cccnc1Cl` is entered as 20%
# PINK1 modulator with `Cc1ccc(C2=NN(C(=O)CCl)C(c3cccs3)C2)o1` (stereo not drawn) is entered as 1.0%

# Quoted at random: 5 entries already listed, in no set order.
mol	D2 potentiator	D2 agonist	PINK1 modulator	TRPV1 PAM	Six1-Eya2 blk	Sfp PPTase inh	CtBP-E1A blk
COc1cccc(CC(NC(C)=O)C(=O)NC2CCN(S(=O)(=O)c3ccc4ccccc4c3)CC2)c1 (stereo not drawn)	0	0.8	-7.7%[38.3 µM]	2	-8	11%	-19
O=C(c1ccccn1)N(Cc1ccco1)C1(C(=O)Nc2ccc(Br)cc2)CCCCC1	-5	-4.9	5.4%	.	-2	.	1
Cc1ccccc1C(=O)NCC(=O)NNC(=S)NC(=O)c1ccccc1	-1	2.3	1.2%	21	4	-3%	1
CCOC(=O)N1CCN(CC(=O)n2c(C)c(C)c3ccccc32)CC1	-9	-3.8	-2.4%	-4	-8	?	-2
Cc1ccc(S(=O)(=O)NCCC(=O)OCC(=O)Nc2ccccc2Cl)cc1	0	1.0	-0.6%	-2	4	9%	5

# Remaining list, next part
mol	D2 potentiator	D2 agonist	PINK1 modulator	TRPV1 PAM	Six1-Eya2 blk	Sfp PPTase inh	CtBP-E1A blk
Cc1ccc(Nc2cc(C(=O)NCCCN3CCOCC3)c3ccccc3n2)c(C)c1	-16	-4.7	-0.7%	5	3	-1%	2
COc1ccc(/C(=C/Nc2cccc(Br)c2)C(C)=O)cc1OC	-3	?	0.5%	-4	-20	7%	.
CCOC(=O)c1c(C)[nH]c(NC(=O)NNC(=O)c2ccccc2Cl)c1C	-3	4.8	-1.2%	-13	3	.	-5
O=P(c1ccccc1)(c1ccccc1)C(O)c1ccco1 (stereo not drawn)	-8	-6.1	-1.8%	4	2	0%	3
COc1cc(C(=O)Nc2ccc3c(c2)N(C(=O)CN2CCN(C)CC2)c2ccccc2CC3)cc(OC)c1OC	-11	-8.7	6.9%	.	-16	7%	-2
CCC1OC(C)Cc2[nH][nH]c(=O)c21 (stereo not drawn)	.	.	-0.7%	.	-5	.	-2
COc1cccc(C2c3[nH]c4ccccc4c3CCN2Cc2ncc[nH]2)c1 (stereo not drawn)	-5	1.6	1.0%	-3	-17	6%	-12
O=C(NCc1ccccn1)Nc1cccc(F)c1	-3	6.3	-0.6%	2	2	2%	6
CCOc1ccccc1OCC(=O)Nc1ccc(S(=O)(=O)Nc2nc(C)cc(C)n2)cc1	1	-1.6	1.5%[38.3 µM]	9	-2	6%	2
CC(CNC(=O)c1ccccc1Cl)NC(=O)c1ccccc1Cl (stereo not drawn)	-1	-0.5	1.1%	.	1	.	0

# More compounds.
mol	D2 potentiator	D2 agonist	PINK1 modulator	TRPV1 PAM	Six1-Eya2 blk	Sfp PPTase inh	CtBP-E1A blk
COC(=O)C(Cc1ccccc1)NC(=O)C(CC(C)C)NC(=O)OC(C)(C)C (stereo not drawn)	-8	-0.2	-0.8%	-22	4	1%	-6
CCCn1cc(SCC(=O)NCC2CCCO2)c2ccccc21 (stereo not drawn)	-8	-3.0	-0.7%	15	1	8%	0
CCOP(=O)(c1ccccc1)C1(C#N)CC1 (stereo not drawn)	-8	2.6	1.7%	-4	-5	20%	9
COc1cc(OC)cc(-n2nc(C(=O)NCCCN3CCOCC3)c3ccccc3c2=O)c1	-31	-3.1	-0.9%	9	-7	6%	-2
O=C(Nc1ccccc1N1CCOCC1)c1cc(=O)[nH]c2ccccc12	5	3.3	10%	0	0	.	.
Cc1[nH]c2c(C)cccc2c1CCNC(=O)C1CCCCC1C(=O)OCC(F)(F)F (stereo not drawn)	-8	-2.1	5.9%	-13	-1	22%	0
CCOc1cc(C2C(C(=O)c3ccco3)=C(O)C(=O)N2CC2CCCO2)ccc1O (stereo not drawn)	-1	2.2	0.3%	-4	8	4%	-1
CCOC(=O)/C(=C\c1ccccc1)C(=O)CCN1CCOCC1	-7	-3.1	-2.2%	.	2	.	4
Cc1ccc(C(=O)Nc2cccc(C(F)(F)F)c2)cc1Nc1cncnc1	-1&-17	3.3&-1.1	1.8%&2.4%	-18	-4&-6	2%	-7&0
CSc1ccccc1NC(=O)c1cc(C)on1	-5	-0.4	2.1%[38.3 µM]	-2	2	?	1

# Continuation:
mol	D2 potentiator	D2 agonist	PINK1 modulator	TRPV1 PAM	Six1-Eya2 blk	Sfp PPTase inh	CtBP-E1A blk
O=C(CCCN1C(=O)c2ccccc2C1=O)OC1CSCC1NC(=O)c1ccccc1 (stereo not drawn)	3	-0.5	-1.5%	3	5	12%	-3
COCC(=O)N1CCC(c2nc3ccccc3[nH]2)CC1	-17	-1.5	2.3%	.	-21	.	-1
Cc1cc2n(n1)C(c1ccccc1)CC(c1ccc(Br)cc1)=N2 (stereo not drawn)	10	6.2	-1.0%	-6	0	-2%	-9
CCN1C(=O)/C(=C/c2ccc(OCc3ccc(C(=O)O)cc3)c(Cl)c2)NC1=S	-4	1.4	-2.0%	4	-8	19%	-3
c1ccc(OCc2nnnn2-c2ccccc2)cc1	4	0.1	-0.7%	0	2	14%	5
COc1ccc(/C=N\NC(=O)C2C(=O)NCC2c2ccccc2)cc1O (stereo not drawn)	-14	-2.2	-0.6%	10	-13	25%	-12
O=C(Nc1ccccc1C(F)(F)F)N1CCN(c2ccccn2)CC1	-1	-5.0	0.7%	-3	9	5%	.
Cc1cc(C)n(-c2cccc(Cl)c2C#N)n1	2	5.4	-0.8%	-8	0	8%	2
